VACV mCherry inh = inhibitors of vaccinia virus infection (mCherry reporter signal). Potency, µM (doses to about 36.5 µM), without a hit: top-dose activity change, negative = inhibition, usual class: inhibitors. Vaccinia virus mCherry reporter infection, fluorescence; about a quarter of the inactives have no number. 310,000 compounds, 0.63% hits. AID 720579; active = well fitted inhibition curve with a large enough effect; inconclusive = small, poorly fitted or top-dose-only effect; inactive = no such curve, though single readings can be large or run the other way; tested in A549 cells; note: nearly all actives have a fitted effect of over 35% in size; inactives centre near -10
Vaccinia Venus = inhibitors of vaccinia virus (Venus reporter); 330,000 compounds, 0.46% hits; Potency, µM (highest dose often 36.5 µM), inactives show at the highest dose activity change, negative = inhibition, actives largely listed as inhibitors; Vaccinia virus Venus reporter expression, fluorescence; AID 720580; active means well fitted inhibition curve with a large enough effect; inconclusive means small, poorly fitted or top-dose-only effect; inactive means no such curve, though single readings can be large or run the other way; tested in A549 cells; note: nearly all actives have a fitted effect of over 30% in size; inactives centre near -10
* hit, by the source's call; & = joins results of further samples; [ ] = another dose, or the depositor's remark. % is set by controls: 0 for no effect and ±100 for the full control effect; potency is the fitted concentration of half-maximal effect.

Screening Cc1ccc2nc(CN3CCN(C(=O)Nc4ccc(C)c(F)c4)CC3)oc2c1 returned VACV mCherry inh -10% and Vaccinia Venus -4%.
For Cc1ccsc1/C=N/NC(=O)c1cccnc1 the results were VACV mCherry inh 1% and Vaccinia Venus -1%.
Screening CC(=O)Nc1cnc(-c2cccc(C(=O)N(C)C)c2)cn1 returned VACV mCherry inh -5% and Vaccinia Venus -7%.
`Cc1ccc(S(=O)(=O)N2CCOC2CNC(=O)C(=O)NCCN(C)C)cc1` (stereo not given) gave VACV mCherry inh inactive and Vaccinia Venus -13%.
`CN(CCO)C(=O)c1cn(C2CCN(Cc3c(F)cccc3Cl)CC2)nn1` gave VACV mCherry inh -9% and Vaccinia Venus 21%.
Screening CCOC(=O)C1=C(O)C(=O)N(c2ccc(S(N)(=O)=O)cc2)C1c1cccc([N+](=O)[O-])c1 (stereo not given) returned VACV mCherry inh -14% and Vaccinia Venus -3%.
`O=C(O)CP(=O)(O)O` gave VACV mCherry inh -14%&-10% and Vaccinia Venus -6%&-5%.
O=C(Cc1ccc(Cl)cc1)Nc1ccccc1CO was read as Vaccinia Venus -27%.
Screening COc1ccc(OC)c(S(=O)(=O)N2CCCC(C(=O)N3CCCCCC3)C2)c1 (stereo not given) returned VACV mCherry inh inactive and Vaccinia Venus -6%.
`O=C(CN1CCC(n2nnc3cc(F)ccc32)CC1)NCCc1ccccc1` gave Vaccinia Venus -18%.
Screening O=C(CSc1nc(O)cc(=O)[nH]1)N1c2ccccc2Sc2ccccc21 returned VACV mCherry inh -5% and Vaccinia Venus 5%.
Screening CCCSc1nc2cc(S(=O)(=O)N3CCOCC3)ccc2n1CC returned VACV mCherry inh -10% and Vaccinia Venus -23%.
For CCC1CN(C(=O)Nc2cccc(OC)c2)c2ccccc2O1 (stereo not given) the results were VACV mCherry inh -6% and Vaccinia Venus -7%.
`CCOC(=O)c1ccc(N2Cc3ccccc3C2)cc1O` gave VACV mCherry inh -3% and Vaccinia Venus -11%.
COc1ccc(CNC(=O)CN2CCC(NC(=O)c3ccc(OC)cc3)CC2)cc1 was read as VACV mCherry inh 1% and Vaccinia Venus -3%.

The last five entries of the part before open the next one.
Screening O=C(CSc1nc(O)cc(=O)[nH]1)N1c2ccccc2Sc2ccccc21 returned VACV mCherry inh -5% and Vaccinia Venus 5%.
Screening CCCSc1nc2cc(S(=O)(=O)N3CCOCC3)ccc2n1CC returned VACV mCherry inh -10% and Vaccinia Venus -23%.
For CCC1CN(C(=O)Nc2cccc(OC)c2)c2ccccc2O1 (stereo not given) the results were VACV mCherry inh -6% and Vaccinia Venus -7%.
`CCOC(=O)c1ccc(N2Cc3ccccc3C2)cc1O` gave VACV mCherry inh -3% and Vaccinia Venus -11%.
COc1ccc(CNC(=O)CN2CCC(NC(=O)c3ccc(OC)cc3)CC2)cc1 was read as VACV mCherry inh 1% and Vaccinia Venus -3%.
For CC(=O)Nc1ccc2sccc2c1 the results were VACV mCherry inh 0% and Vaccinia Venus 1%.
Screening O=c1[nH]nc(SCc2ccccc2Cl)n1-c1ccc2c(c1)OCCO2 returned VACV mCherry inh -6% and Vaccinia Venus -13%.
For CCOC(=O)C(C)Sc1ncnc2c1nnn2-c1ccc(F)cc1 (stereo not given) the results were Vaccinia Venus -2%.
Cc1cc(=O)n2nc(N3CCCC(C(=O)NCCCN4C(C)CCCC4C)C3)sc2n1 (stereo not given) was read as VACV mCherry inh -15% and Vaccinia Venus -8%.
For CC1CCc2[nH]c3ccc(C(=O)Nc4ccc(C(=O)N(C)C)cc4)cc3c2C1 (stereo not given) the results were VACV mCherry inh inactive and Vaccinia Venus -9%.
COC(=O)c1c(N2C(=O)[C@H]3[C@@H](C2=O)[C@]2(C(=O)Nc4c(C)cccc42)N2CCC[C@@H]32)sc(C)c1C was read as VACV mCherry inh -12% and Vaccinia Venus 8%.
Screening COc1cccc(-c2cc3nc(NCCOc4ccccc4Cl)n(C)c(=O)c3s2)c1 returned VACV mCherry inh -3% and Vaccinia Venus -5%.
For COc1ccc(Cn2c(C(=O)O)c(CNCCc3ccco3)c3ccc(OC)cc32)cc1 the results were VACV mCherry inh 2% and Vaccinia Venus -3%.
`CCC(Sc1nnnn1-c1ccccc1)C(=O)Nc1nc2ccccc2s1` (stereo not given) gave Vaccinia Venus -23%.
CC(=O)Nc1ccc(S(=O)(=O)Oc2ccccc2N2C(=O)C3C4CCC(C4)C3C2=O)cc1 (stereo not given) was read as VACV mCherry inh inactive and Vaccinia Venus 20%.
NNC(=O)c1cccn(Cc2ccc(Cl)cc2Cl)c1=O was read as VACV mCherry inh -6% and Vaccinia Venus -14%.
For Cc1noc(C)c1C(=O)N1CCN(Cc2ccccc2)CC1 the results were Vaccinia Venus -17%.
CCOc1ccc(N2C(=O)CC(N(CCc3ccc(OC)c(OC)c3)C(=S)Nc3ccccc3)C2=O)cc1 (stereo not given) was read as VACV mCherry inh 0% and Vaccinia Venus -26%.
Screening O=C(Nc1cccc(Cl)c1)c1cc(F)cc2c1OCOC2 returned VACV mCherry inh -7%[7.34 µM] and Vaccinia Venus -3%[7.34 µM].
O=C(NCCCc1ccccc1)c1cccc(NC(=O)c2ccccc2)c1 was read as VACV mCherry inh inactive and Vaccinia Venus -20%.
For CCN(CC)CCn1c2c(c(SCC(=O)Nc3cc(C)on3)nc1=O)CCCC2 the results were VACV mCherry inh -9% and Vaccinia Venus 2%.
`COCCNC(=O)C1CCC(CNS(=O)(=O)c2ccc3c(c2)CC(C)N3C(C)=O)CC1` (stereo not given) gave VACV mCherry inh -6% and Vaccinia Venus -4%.
`O=C(CN(Cc1ccco1)C(=O)c1cc(=O)[nH]c2ccccc12)Nc1ccccc1Br` gave VACV mCherry inh -21%[1.46 µM] and Vaccinia Venus -7%.
`CCOC(=O)C1(Cc2ccccc2Cl)CCN(S(=O)(=O)N(C)C)CC1` gave VACV mCherry inh -28% and Vaccinia Venus -10%.
CCN(CC)S(=O)(=O)c1ccc2[nH]cc(C(=O)NCCN3CCCCCC3)c(=O)c2c1 was read as VACV mCherry inh 2% and Vaccinia Venus 2%.
O=C(CCn1nc(-c2ccc(Cl)cc2)c2ccccc2c1=O)NCCN1CCOCC1 was read as VACV mCherry inh -4% and Vaccinia Venus -6%.
`COc1cccc(CNC(=O)CCc2c(C)c3cc4c(C)c(C)oc4cc3oc2=O)c1` gave VACV mCherry inh inactive and Vaccinia Venus -26%.
O=C(Nc1ccc(Oc2ncnc3cc(Cl)ccc23)nc1)c1ccc(F)cc1 was read as VACV mCherry inh inactive and Vaccinia Venus -1%.
COc1ccc(-c2cc(C(=O)Nc3nc4c(C)cccc4s3)c3ccccc3n2)cc1OC was read as VACV mCherry inh -8% and Vaccinia Venus -10%.
`CCOC(=O)/C=C/[C@H]1CC(c2ccccc2)(c2ccccc2)CO1` gave VACV mCherry inh -5% and Vaccinia Venus -10%.
O=C(CSc1nc2c(c(=O)[nH]1)CN(Cc1ccc(F)cc1)CC2)Nc1ccc(F)cc1 was read as VACV mCherry inh -1% and Vaccinia Venus -2%.
For Cc1ccc(-n2nc3c(=O)n(CC(=O)Nc4ccccc4F)nc(C)c3c2C)c(C)c1 the results were VACV mCherry inh inconclusive and Vaccinia Venus inconclusive.
COc1ccc(-c2noc(-c3ccccc3F)n2)cc1 was read as VACV mCherry inh -14% and Vaccinia Venus -15%.
For Cc1cccc(OCc2nnc(SCc3cc(=O)n4cc(Br)ccc4n3)o2)c1 the results were Vaccinia Venus -7%.
Screening CCN(CC)S(=O)(=O)c1cccc(NC(=O)c2ccc(C#N)cc2)c1 returned VACV mCherry inh -2% and Vaccinia Venus -18%.
Cc1cc(-c2nnc(CCC(=O)N3CCN(Cc4cccnc4)CC3)o2)c(C)o1 was read as VACV mCherry inh inactive and Vaccinia Venus -12%.
For Cc1cc(NC(=O)c2ccc3nc(-c4ccccc4)c(-c4ccccc4)nc3c2)no1 the results were VACV mCherry inh -9% and Vaccinia Venus -21%.
For COCCNC(=O)c1cccc2c1-c1ccccc1C2=O the results were VACV mCherry inh inactive and Vaccinia Venus 10%.
Screening Cc1nn(-c2ccc(C(=O)O)cc2)c2c1C(=O)CC(C)(C)C2 returned VACV mCherry inh -8% and Vaccinia Venus -9%.
Screening CC(C)(C)c1ccc(OCC(=O)Nc2ccc(C(=O)Nc3ccccc3C(=O)O)cc2)cc1 returned VACV mCherry inh -10% and Vaccinia Venus -9%.
`Cc1ccccc1C(=O)Nc1ccnn1C1CCN(CCCc2ccccc2)CC1` gave VACV mCherry inh -29% and Vaccinia Venus -25%.
Screening COCCN(C(=O)COC(=O)c1c(NC(C)=O)sc(C)c1C)c1c(N)n(Cc2ccccc2)c(=O)[nH]c1=O returned VACV mCherry inh -20% and Vaccinia Venus -14%.
CCC(C)[C@H](NS(=O)(=O)c1ccc(C)cc1)C(=O)N1CCC(C(=O)N[C@H](C(=O)O)c2ccccc2)CC1 (stereo not given in full) was read as VACV mCherry inh -8% and Vaccinia Venus 4%.
`Cc1nc(N2CCOCC2)nc(N2CCCC2)c1[N+](=O)[O-]` gave VACV mCherry inh -21% and Vaccinia Venus -14%.
Screening Cc1ccc(-c2nc(CN3C(=O)CN=C(c4ccccc4Cl)c4cc(Cl)ccc43)c(C)o2)cc1 returned VACV mCherry inh -7% and Vaccinia Venus -20%.
`O=C(O)c1cc(N/N=C/c2ccc(OCc3ccccc3)cc2)ccc1Cl` gave VACV mCherry inh inactive and Vaccinia Venus -7%.
For CCOC(=O)N1CCc2c(sc(NCc3cccs3)c2C(=O)Nc2cc(OC)ccc2OC)C1 the results were VACV mCherry inh -2% and Vaccinia Venus -15%.
O=C1c2ccccc2S(=O)(=O)c2cc(C(=O)N3CCN(c4c(Cl)cncc4Cl)CC3)ccc21 was read as VACV mCherry inh inconclusive and Vaccinia Venus -25%.
`COc1cccc2cc(C(=O)NCc3ccc(C)cc3)c(=N)oc12` gave VACV mCherry inh inactive and Vaccinia Venus -26%.
COc1ccc(NC(=O)c2ccc3c(c2)C(=O)N(CC2CCCO2)C3=O)c(OC)c1 (stereo not given) was read as VACV mCherry inh inactive and Vaccinia Venus -11%.
`O=S(=O)(CCN1CCN(c2ccccn2)CC1)c1ccc(Cl)cc1Cl` gave VACV mCherry inh inconclusive and Vaccinia Venus inconclusive.
Screening CCc1ccc(NC(=O)NC(C)c2ccc3c(c2)OCO3)cc1 (stereo not given) returned VACV mCherry inh -17% and Vaccinia Venus -10%.
`COc1ccc(C(C(=O)NC(C)(C)C)n2c(=O)c(-c3cc4ccccc4[nH]3)nc3ccccc32)cc1` (stereo not given) gave VACV mCherry inh -26% and Vaccinia Venus -24%.
Screening CS(=O)(=O)N(CC(=O)N1CCCCC1)c1ccc(Cl)c(C(F)(F)F)c1 returned VACV mCherry inh inactive and Vaccinia Venus -9%.
Screening CCOC(=O)C1NN=C(C(=O)c2ccccc2)C1c1ccc(Cl)cc1 (stereo not given) returned VACV mCherry inh -17% and Vaccinia Venus -9%.
O=C(CNC(=O)C(c1ccccc1)c1ccccc1)N/N=C\c1cccc(O)c1 was read as VACV mCherry inh -3% and Vaccinia Venus -17%.
For Clc1nssc1=Nc1ccccc1 the results were VACV mCherry inh -1% and Vaccinia Venus -10%.
COc1cccc(/C=C/C(=O)OCC(=O)Nc2ccc3c(c2)OCO3)c1 was read as VACV mCherry inh -17% and Vaccinia Venus -15%.
Screening Cc1ccc2c(c1)c(C)c(C)n2CC(O)Cn1nc(C)c(Br)c1C (stereo not given) returned VACV mCherry inh -9% and Vaccinia Venus -24%.
`CSCCC(NC(=O)c1ccccc1)C(=O)N1CCN(Cc2ccc(Cl)cc2)CC1` (stereo not given) gave VACV mCherry inh -15% and Vaccinia Venus -7%.
`Cc1ccc(-c2ccccc2NC(=O)CS(=O)CC(=O)Nc2ccc(C)c(Cl)c2)o1` (stereo not given) gave VACV mCherry inh inconclusive and Vaccinia Venus 127%[activator].
For CN(C)c1cccc(C(=O)NNC(=S)NC2CC3CCC2C3)c1 (stereo not given) the results were VACV mCherry inh -3% and Vaccinia Venus -3%.
`CC(C)[C@]1(O)[C@@H](OC(=O)c2ccc[nH]2)[C@@]2(O)[C@@]3(C)C[C@]4(O)O[C@@]5([C@H](O)[C@@H](C)CC[C@]35O)[C@@]2(O)C41C` gave VACV mCherry inh -9% and Vaccinia Venus -9%.
Cc1nc(NS(=O)(=O)c2ccccc2C)c2c3c(sc2n1)CCC3 was read as Vaccinia Venus 12%.
For COC(=O)COc1ccc(S(=O)(=O)N2CCN(c3ccccc3)CC2)cc1 the results were VACV mCherry inh inactive and Vaccinia Venus -16%.
Screening S=c1[nH]ccc2ccccc12 returned VACV mCherry inh inactive and Vaccinia Venus -3%.

Pulled by compound from the entries so far:
O=C(CSc1nc2c(c(=O)[nH]1)CN(Cc1ccc(F)cc1)CC2)Nc1ccc(F)cc1 was read as VACV mCherry inh -1% and Vaccinia Venus -2%.
CC(=O)Nc1ccc(S(=O)(=O)Oc2ccccc2N2C(=O)C3C4CCC(C4)C3C2=O)cc1 (stereo not given) was read as VACV mCherry inh inactive and Vaccinia Venus 20%.
For Clc1nssc1=Nc1ccccc1 the results were VACV mCherry inh -1% and Vaccinia Venus -10%.
O=C(CCn1nc(-c2ccc(Cl)cc2)c2ccccc2c1=O)NCCN1CCOCC1 was read as VACV mCherry inh -4% and Vaccinia Venus -6%.
Screening CS(=O)(=O)N(CC(=O)N1CCCCC1)c1ccc(Cl)c(C(F)(F)F)c1 returned VACV mCherry inh inactive and Vaccinia Venus -9%.
For CCOC(=O)C(C)Sc1ncnc2c1nnn2-c1ccc(F)cc1 (stereo not given) the results were Vaccinia Venus -2%.

Screening data as filed in PubChem BioAssay.
